Screening results: PubChem, several laboratories
Beta2AR agonist = beta2AR agonists driving receptor internalization, primary screen, cell-based, FAP fluorogen, flow cytometry. Beta-2 adrenergic receptor (Homo sapiens), P07550. Am2.2-beta2AR cells; reference of the scale not given here. response, % (concentration not given with the values). 340,000 compounds, 0.43% hits. AID 504454, 2011;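 active = response above a set limit, near 3 SD of response in nonfluorescent compounds, cut at about 42% in these data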;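 note: stock transfer was 100 nL into about 11 µL; a reference agonist was the positive control; negative values mostly stem from fluorescent compounds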
Bfl-1 A1 inh = caspase 3/7 activation in MEF A1-2A-BIM cells, primary screen, A1 inhibitor project, cell-based, luminescence, HTS; Caspase-Glo 3/7 luminescence, 3 h; percent of clofoctol response, vehicle zero; 330,000 compounds, 0.066% hits; caspase activation, % (test concentration not listed);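 active = over half of replicate activation scores above 10%, or exactly half above 10 with the replicate mean above 10; inconclusive = replicate mean below 10 yet half the replicates above 10; inactive = over half of replicates below 10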;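 note: wells of about 30 µL received 50 nL stock; many hits fall short of the cut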
UCH37 inh = inhibitors of human UCH37 deubiquitinase, primary screen, biochemical, Ub-AMC cleavage, fluorescence | Ubiquitin carboxyl-terminal hydrolase isozyme L5 (Homo sapiens), Q9Y5K5 | purified proteasome/UCH37 | inhibition, % (no concentration beside the values) | 330,000 compounds, 0.33% hits;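 active = mean of two replicates above 20%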;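 note: 0% = compound-free wells with enzyme and 100% = wells lacking proteasome; stock transfer was 100 nL into about 20 µL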
Target sequence (Q9Y5K5 whole entry, looked up): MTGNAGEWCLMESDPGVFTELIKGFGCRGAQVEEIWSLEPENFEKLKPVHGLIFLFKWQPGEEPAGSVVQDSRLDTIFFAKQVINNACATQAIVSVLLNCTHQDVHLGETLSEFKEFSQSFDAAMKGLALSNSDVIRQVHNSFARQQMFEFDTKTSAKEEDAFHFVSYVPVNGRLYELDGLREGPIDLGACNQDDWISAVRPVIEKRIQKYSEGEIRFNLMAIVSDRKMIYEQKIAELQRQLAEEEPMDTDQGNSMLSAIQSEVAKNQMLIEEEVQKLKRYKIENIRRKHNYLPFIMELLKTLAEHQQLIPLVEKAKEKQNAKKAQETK
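Signal – fluorescence, ex 355 nm, em 460 nm · System – Proteasome-bound UCH37 · Input – 0.15 nM proteasome as dispensed · Timing – 30 min preincubation with enzyme, 25 min cleavage at room temperature · Read-out basis – percent inhibition of cleavage signal versus uninhibited and no-proteasome wells · Medium – Tris-HCl pH 7.4 with ATP-MgCl2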
Ecoli growth = E. coli growth inhibition, primary screen, OD600. Escherichia coli growth, 23 h; active compounds read low. OD600 absorbance (concentration not given with the values). 330,000 compounds, 0.21% hits. AID 1053175, 2014;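 active = OD600 absorbance below the run mean of sample wells minus 3.6 SD, in any replicate, cut at about 0.56 in these data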;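 note: stock transfer was 300 nL into about 60 µL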
LANA-H2B inh = blockers of LANA interaction with H2A/H2B – biochemical, FP readout, HTS, primary screen; 320,000 compounds, 0.6% hits; Protein LANA1 (Human herpesvirus 8 type P (isolate GK18)), Q9QR71; inhibition, % (test concentration not listed); AID 2629, 2010; cell-free LANA-H2A/H2B peptide, fluorescence polarization; in the data active = inhibition mostly above about 10%, no sharp cut-off; inactive = mostly below about 6.7%;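 note: stock transfer was 7.5 nL into about 10 µL; 0% = median of vehicle wells and 100% = median of positive control wells; one replicate is shown; the record names a cut of 25% in any replicate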
HNF4A DNA FP = change in binding of human HNF4A to DNA, primary screen, biochemical, fluorescence polarization, FITC-DNA; 360,000 compounds, 0.3% hits; activity change, % at 10 µM; Hepatocyte nuclear factor 4-alpha (Homo sapiens), P41235; 1 h; in the data active = activity change above about 30%, passing the limit was not always enough;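 note: controls were the assay level and a saturating level of protein; the project sought stronger binding though the title names inhibitors; some compounds called inactive have numbers as strong as hits; positive values seem to mean higher polarization but the record does not say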
Target sequence (P41235 whole entry, looked up): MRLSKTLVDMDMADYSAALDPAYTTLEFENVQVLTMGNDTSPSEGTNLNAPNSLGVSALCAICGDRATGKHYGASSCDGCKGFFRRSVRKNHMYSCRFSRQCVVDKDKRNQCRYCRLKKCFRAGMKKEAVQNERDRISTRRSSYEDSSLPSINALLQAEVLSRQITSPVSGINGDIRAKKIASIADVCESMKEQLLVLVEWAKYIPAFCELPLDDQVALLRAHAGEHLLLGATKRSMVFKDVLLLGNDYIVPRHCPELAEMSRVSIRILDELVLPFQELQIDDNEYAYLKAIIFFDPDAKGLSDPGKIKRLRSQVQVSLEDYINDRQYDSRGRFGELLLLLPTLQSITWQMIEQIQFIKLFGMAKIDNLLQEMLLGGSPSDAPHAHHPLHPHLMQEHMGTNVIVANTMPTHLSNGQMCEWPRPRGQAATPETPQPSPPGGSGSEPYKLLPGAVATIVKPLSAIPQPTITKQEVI
Vif TR-FRET = inhibitors of Vif binding to APOBEC3G peptide, primary screen, biochemical, TR-FRET, GST-Vif 1-94, biotin-A3G peptide, dose response retest (AID 1117319); TR-FRET GST-Vif / biotin-A3G peptide binding; higher % means a stronger effect; test concentration not given here; strong numbers were not always called active; inhibition, %, or IC50 in µM where a hit was titrated; 260,000 compounds, 0.57% hits;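 active = above the screen mean plus three standard deviations and confirmed in dose response; inconclusive = results disagree or hit not tested in dose response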;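 note: Vif residues 1-94 fused to GST binding biotinylated APOBEC3G peptide 110-148; 0% = full assay without inhibitor and 100% = GST in place of GST-Vif; retest series ran down from 100 µM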
Active calls of the source: *; u = inconclusive; x = no result given; & = joins results of further samples.

SMILES	Beta2AR agonist	Bfl-1 A1 inh	UCH37 inh	Ecoli growth	LANA-H2B inh	HNF4A DNA FP	Vif TR-FRET
COc1ccc(CNC(=O)COC(=O)/C=C/c2ccc(Cl)cc2)cc1	4	-0.9	1.4	0.7	-2.4	3.7	-6%
Cc1ccc(-c2nc(N)n(S(=O)(=O)c3ccc(C)cc3)n2)cc1	-8	-0.3	5.3	0.72	-3.9	1.0	1%
Cc1ccc(C(=O)CSc2nnnn2C(C)C)c(C)c1	-4	-2.7	1.3	0.66	-4.2	-0.1	4%
O=C(Cn1c2ccccc2c(=O)c2ccccc21)N/N=C/c1cc([N+](=O)[O-])ccc1N1CCCCC1	-27	1.2	x	x	-2.6	13	3%
COc1cc(NC(=O)C2CCCCC2)c(OC)cc1NC(=O)CN1CCCCC1	2	0.2	-2.2	0.72	0.9	-1.7	14%
COc1ccc(NC(=O)N(C)C[C@H]2Oc3c(NS(=O)(=O)c4ccc(OC)cc4)cccc3C(=O)N([C@H](C)CO)C[C@@H]2C)cc1	-3	0.8	2.1	x	-2.9	-2.0	x
Cc1ccc2c(c1)N(CC(=O)N(Cc1ccccn1)Cc1ccco1)C(=O)C(C(C)C)O2 (stereo unspecified)	-3	0.1	4.0	0.72	-2.3	1.9	-1%
CC(=O)c1ccc(N2CCN(CC(=O)Nc3ccc(N4CCOCC4)cc3)CC2)cc1	x	-1.1	x	x	7.6	x	-2%
FC(F)Oc1ccc(NC(=S)Nn2cnnc2)cc1	-1	-0.2	3.0	0.68	3.2	-6.1	x
CCOC(=O)C1C(=O)C=C(Nc2ccccc2F)CC1c1ccccc1 (stereo unspecified)	8	0.0	1.0	0.65	x	-1.7	13%
COc1ccccc1C(c1nnnn1CC1CCCO1)N1CCC(C(N)=O)CC1 (stereo unspecified)	-1	-0.8	8.3	0.76	4.4	1.7	32%
CSCCC(NS(=O)(=O)c1ccc(Br)cc1)C(=O)OCC(=O)NC1CC1 (stereo unspecified)	-3	-0.5	-0.6	0.66	-2.3	0.0	x

3 entries from above, arranged by their value in LANA-H2B inh, largest number first:
structure	LANA-H2B inh
FC(F)Oc1ccc(NC(=S)Nn2cnnc2)cc1	3.2
O=C(Cn1c2ccccc2c(=O)c2ccccc21)N/N=C/c1cc([N+](=O)[O-])ccc1N1CCCCC1	-2.6
COc1ccc(NC(=O)N(C)C[C@H]2Oc3c(NS(=O)(=O)c4ccc(OC)cc4)cccc3C(=O)N([C@H](C)CO)C[C@@H]2C)cc1	-2.9

Going on with the list:
SMILES	Beta2AR agonist	Bfl-1 A1 inh	UCH37 inh	Ecoli growth	LANA-H2B inh	HNF4A DNA FP	Vif TR-FRET
CC1=Nc2ccc(C)cc2N(Cc2ccccc2)C(=O)C1	-8	1.2	1.6	0.79	1.4	-1.5	-1%
Cc1ccc(C)c(S(=O)(=O)N2CCN(C(=O)CN3C(=O)C4CC=CCC4C3=O)CC2)c1 (stereo unspecified)	2	x	1.4	0.66	x	2.4	3%
Cc1ccc(S(=O)(=O)NC(=O)N2CCN(Cc3c(F)cccc3Cl)CC2)cc1	-4	1.0	0.7	0.62	-3.3	5.9	x
CC(C)NC(=S)N/N=C/c1ccccc1[N+](=O)[O-]	3	0.0	x	x	6.8	-2.5	0%
Cc1ccc(C)c(S(=O)(=O)N2CCN(CC(=O)NC(=O)NCc3ccco3)CC2)c1	-3	0.3	1.1	0.66	2.5	-0.3	u
COC(=O)c1ccc(C(=O)OC)c(NC(=O)COc2ccccc2OC)c1	1	-0.3	-0.4	0.72	-2.1	1.2	18%
Cc1cccc(N2CCN(S(=O)(=O)c3c(C)[nH]c(C)c3C(=O)N3CCCCC3)CC2)c1C	1	-0.7	4.0	0.68	7.8	-2.1	0%
Nc1ccc(S(=O)(=O)Nc2cnc3ccccc3n2)cc1	-4&-7	-0.4&0.4	7.1&2.4	0.67&0.66	-1.6&-5.9	0.4&15	4%
COc1ccc(-c2cc(C(=O)OCC(=O)c3cccc([N+](=O)[O-])c3)c3cc(C)ccc3n2)cc1	6	0.1	-43	0.72	-0.8	2.5	12%
Cc1cc(Cl)cc2sc(=S)[nH]c12	-1	x	2.8	0.62	x	0.7	-2%
CC(=O)c1cccc(NC(=O)CSc2ccc(-c3ccco3)nn2)c1	-18	0.0	0.4	0.67	1.8	-4.0	2%
C/C(=N\OCC(=O)OCC(=O)Nc1cc(S(C)(=O)=O)ccc1Cl)c1ccc2c(c1)OCO2	12	-1.5	x	x	-1.2	1.8	-6%
Nc1ccc(C(=O)Nc2ccc(NC(=O)c3ccco3)c(O)c2)cc1	-2	-3.0	4.4	0.67	-1.0	2.7	11%
CCOC(=O)c1cc(CNC(=O)c2c(C)oc3c2CCCC3)c(C)o1	10	0.1	4.5	0.68	1.4	0.6	23%
COC(=O)c1sc(S(=O)(=O)Nc2ccc(Br)cc2)c(C(=O)OC)c1C	7	0.1	4.9	0.7	1.4	-1.9	x
CN(C(=O)c1cccc(COc2ccc(Cl)cc2Cl)c1)c1ccccc1	-8	0.9	2.6	0.67	-1.5	-1.0	0%
COc1cccc(CNC(=O)C(=O)NCCC2CCCCN2S(=O)(=O)c2ccccc2)c1 (stereo unspecified)	-3	2.3	2.5	0.7	5.6	0.6	-8%
CC1CN(C(=O)c2ccc(S(=O)(=O)Nc3ccccc3Cl)cc2)CC(C)O1 (stereo unspecified)	2	0.8	-0.1	0.71	-2.6	-0.6	x
CS(=O)(=O)N1CCC(Oc2ccccc2C(=O)N2CCCCC2CO)CC1 (stereo unspecified)	16	-0.1	0.8	0.67	2.1	1.2	6%
O=C(C/C=N\OCc1ccc([N+](=O)[O-])cc1)Nc1ccccc1	0	-0.2	x	x	-6.6	2.4	-15%
COc1ccc(CC(=O)Nc2cccc(-c3nnc(-c4ccccc4)o3)c2)cc1OC	34	x	4.2	0.67	x	11	-4%
COc1ccc(C(Nc2ccccn2)c2c(NC(=O)c3ccco3)sc(C)c2C)cc1 (stereo unspecified)	5	0.2	4.7	0.74	0.8	8.0	x
CCc1ccc(OCC(=O)O/N=C(\N)c2ccccn2)cc1	9	x	3.9	0.65	x	2.3	-5%
Cc1ccc(Nc2c(-c3ccccc3O)nc3cnccn23)cc1	4	-0.4	-2.2	0.67	-1.5	-2.0	3%
C=CCn1c(=O)c(C(=O)NCCc2ccccc2)c(O)c2ccccc21	4	-0.2	-0.9	0.65	-1.4	0.9	-4%
Cc1cc2nc(-c3cccnc3SCC(=O)NC(C)C)[nH]c2cc1C	2	-8.4	-59	0.71	-1.1	2.7	x
O=[N+]([O-])c1cnn(-c2nc(-c3ccccc3)cc(C(F)(F)F)n2)c1	-11	-0.2	4.7	0.71	-3.4	1.8	-5%
Cc1sc(NC(=O)c2ccco2)c(CN2CCN(c3ccccc3)CC2)c1C	-7	0.2	-5.2	0.73	-7.5	1.6	-3%
COc1ccc(N2CCN(C(=O)c3cccn4c(=O)c5ccccc5nc34)CC2)cc1	0	0.0	-6.2	0.72	-0.3	1.8	12%
CCCn1nnnc1NCc1ccc(OC)cc1OC	-2	0.7	0.9	0.69	3.8	2.0	3%
O=C(CNC(=O)c1ccco1)N/N=C/c1ccccc1[N+](=O)[O-]	-2	0.8	x	x	0.3	2.0	0%
COc1cccc(C(c2nnnn2Cc2ccc(F)cc2)N2CCC(C(N)=O)CC2)c1OC (stereo unspecified)	-1	0.3	0.7	0.74	-1.5	2.4	3%
O=C(Nc1cccc2ccccc12)c1ccc(F)cc1	-1	-1.5	0.1	0.72	5.1	3.1	-3%
CN(C)S(=O)(=O)c1ccc(Cl)c(NC(=O)COC(=O)CC(NC(N)=O)c2ccc(Cl)cc2)c1 (stereo unspecified)	11	1.1	0.9	0.68	-4.6	2.9	x
O=C1CCCc2[nH]c3cccc(/C(=C/c4ccccc4)c4ccccc4)c3c21	6	-0.3	1.6	0.81	-0.7	-3.4	x
CCOC(=O)c1ccc(CNC(=O)C2CCCCC2C(=O)OCC(F)(F)F)o1 (stereo unspecified)	14	-0.4	x	x	6.6	-2.8	u

Part of the list above in order of length of the SMILES, ascending.
SMILES	Beta2AR agonist	Bfl-1 A1 inh	UCH37 inh	Ecoli growth	LANA-H2B inh	HNF4A DNA FP	Vif TR-FRET
O=C(CNC(=O)c1ccco1)N/N=C/c1ccccc1[N+](=O)[O-]	-2	0.8	x	x	0.3	2.0	0%
CCOC(=O)c1ccc(CNC(=O)C2CCCCC2C(=O)OCC(F)(F)F)o1 (stereo unspecified)	14	-0.4	x	x	6.6	-2.8	u
O=[N+]([O-])c1cnn(-c2nc(-c3ccccc3)cc(C(F)(F)F)n2)c1	-11	-0.2	4.7	0.71	-3.4	1.8	-5%

Continuation.
SMILES	Beta2AR agonist	Bfl-1 A1 inh	UCH37 inh	Ecoli growth	LANA-H2B inh	HNF4A DNA FP	Vif TR-FRET
CCOC(=O)c1c(C)[nH]c(C(=O)COC(=O)COc2ccc(OC)cc2)c1C	10	-0.3	3.3	0.71	1.1	0.8	4%
CCOc1ccc([C@@H]2CC=C(C(=O)O)[C@H](c3ccc(F)cc3)N2S(=O)(=O)c2ccc(C)cc2)cc1	0	0.4	4.5	x	-2.9	6.4	x
CSCCC(NC(=O)/C(=C/c1ccco1)NC(=O)c1ccc(Br)o1)C(=O)O (stereo unspecified)	3	1.4	3.9	0.68	0.5	-2.3	14%
COC(=O)Nc1ccc(S(=O)(=O)N2CCN(CCN3C(=O)C4C5C=CC(C5)C4C3=O)CC2)cc1 (stereo unspecified)	-3	0.8	6.0	0.69	1.4	1.0	-1%
CCN(CC)c1ccc(/C=N\NC(=O)c2cccc3cc[nH]c23)cc1	14	0.5	x	x	-4.1	-2.2	-8%
O=C(COC(=O)c1ccc(Br)cc1)NC(=O)NCc1ccccc1	-5	0.3	-1.3	0.7	-6.7	-0.3	-6%
COC(=O)c1nn(-c2cccc(C(F)(F)F)c2)ccc1=O	2	-0.5	0.0	0.69	-1.1	0.3	-5%
COc1c(Cl)cc(C(=O)Nc2ccccc2-c2ccccc2)cc1Cl	-6	1.1	2.5	0.64	-4.7	-1.4	1%
O=C(O)c1cn(-c2ccc(F)cc2)c(=O)c2ccccc12	6	0.3	-5.7	0.71	1.0	1.3	0%
Oc1cc2ccccc2cc1-c1n[nH]c(=S)n1Cc1ccco1	-1	-0.1	-15	0.7	4.1	-0.7	6%
O=C(NNC(=S)NC(=O)C12CC3CC(CC(C3)C1)C2)c1ccncc1	3	0.1	5.9	0.65	-1.8	4.4	7%
CCc1ccc(C2CC(c3cccc(Cl)c3)n3nc(N)nc3N2)cc1 (stereo unspecified)	2	1.2	-5.0	0.76	-0.1	1.2	-1%
CN(C(=O)c1cncc(Br)c1)c1c(N)n(Cc2ccccc2)c(=O)[nH]c1=O	-1	0.1	0.3	0.65	0.6	3.2	-5%
Cc1ccc(NC(=O)CSc2nc3[nH]ncc3c(=O)[nH]2)cc1	2	0.6	7.1	0.68	-0.2	-2.6	-1%
CN1C(=O)CC(N2CCN(c3ccc(Cl)c(Cl)c3)CC2)C1=O (stereo unspecified)	9	-0.4	4.1	0.64	0.6	-1.7	-4%
O=C(CNc1cccc2ccccc12)N/N=C/c1ccc[nH]1	5	1.1	x	x	-4.3	2.8	x
Cc1ccc2c(COn3nnc4ccc(S(=O)(=O)N(C)C)cc43)cc(=O)oc2c1C	x	x	3.6	0.7	x	x	-6%
Nc1ncc(Br)cc1S(=O)(=O)NCCC(=O)Nc1cccc(Cl)c1	3	-0.9	-2.5	0.68	-8.0	-1.9	12%
